Assay outcomes deposited in PubChem BioAssay by several laboratories.
T cruzi inh = blocks replication of Trypanosoma cruzi | AID 1885 | inhibition, % (test concentration not listed) | 300,000 compounds, 1.4% hits | T. cruzi beta-gal in NIH3T3, luminescence, 90 h;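 active = mean inhibition across valid replicates above about 55%, limit read from the data; inconclusive = mean below that limit but half or more replicates reach it; inactive = mean below it, under half of replicates reach it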;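 also: signal also drops with host cell toxicity which is not excluded here; 0% = plate median of DMSO wells and 100% = zero luminescence signal; higher percent means less beta-gal luminescence so fewer parasites; stock transfer was 50 nL into about 50 µL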
Bfl-1 A1 inh = inhibitors of the anti-apoptotic protein A1, read as caspase activation | MEF A1-2A-BIM cells, Caspase-Glo 3/7 luminescence, 3 h; percent of clofoctol response, vehicle zero | caspase activation, % (test concentration not listed) | 330,000 compounds, 0.066% hits;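 active = over half of replicate activation scores above 10%, or exactly half above 10 with the replicate mean above 10; inconclusive = replicate mean below 10 yet half the replicates above 10; inactive = over half of replicates below 10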;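 also: wells of about 30 µL received 50 nL stock; many hits fall short of the cut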
rRNA inh HTS = inhibits bacterial ribosomal RNA function over humanized ribosomes; E. coli WT GFP vs humanized-ribosome RFP mutants, fluorescence, 24 h; stronger effect = lower value; DMSO median 0, no signal -100; GFP signal change (wild-type ribosome), % (no concentration beside the values); 350,000 compounds, 1.6% hits; AID 720706;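 active = significant combined selectivity score with lowered wild-type GFP, culture density cut under 30%, mutant RFP and density less affected; inactive = any of these conditions unmet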; also: one replicate is shown; some compounds called inactive have numbers as strong as hits
Calb FLC = C. albicans growth modulation with fluconazole. 300,000 compounds, 0.57% hits. growth inhibition, % (no concentration beside the values). AID 1979. C. albicans CaCi-2 (fluconazole-resistant clinical isolate) + fluconazole, Alamar Blue growth, 48 h;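 active = most replicates above 75%; inconclusive = exactly half above 75%; inactive = most below 75%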;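 also: all wells also contain fluconazole at 8 µg/ml as a sub-toxic cotreatment; 0% = median of DMSO wells and 100% = median of geldanamycin control wells; wells of about 8 µL received 7.5 nL stock; the first replicate is given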
Vif TR-FRET = HIV-1 Vif–A3G interaction blockers – biochemical, TR-FRET, GST-Vif 1-94, biotin-A3G peptide, dose response retest, primary screen (AID 1117319); 260,000 compounds, 0.57% hits; TR-FRET GST-Vif / biotin-A3G peptide binding; higher % means a stronger effect; test concentration not given here; strong numbers were not always called active; inhibition, %, or IC50 in µM where a hit was titrated;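 active = above the screen mean plus three standard deviations and confirmed in dose response; inconclusive = results disagree or hit not tested in dose response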;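 also: Vif residues 1-94 fused to GST binding biotinylated APOBEC3G peptide 110-148; 0% = full assay without inhibitor and 100% = GST in place of GST-Vif; retest series ran down from 100 µM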
AF4-AF9 inh = blocks AF4 peptide binding to human AF9; P42568; AlphaScreen, biotin-AF4 peptide binding to FLAG-AF9; inhibition, % at 10 µM; 350,000 compounds, 0.47% hits;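 active = every replicate reaching a set inhibition limit, whatever the replicate mean, cut at about 25% in these data; inconclusive = mean inhibition reaches that limit but some replicates miss it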;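 also: 0% = plate neutral control median and 100% = total signal loss; the record names both 10 and 1 µM as test concentration; the first replicate is given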
Target sequence (P42568 whole entry, looked up): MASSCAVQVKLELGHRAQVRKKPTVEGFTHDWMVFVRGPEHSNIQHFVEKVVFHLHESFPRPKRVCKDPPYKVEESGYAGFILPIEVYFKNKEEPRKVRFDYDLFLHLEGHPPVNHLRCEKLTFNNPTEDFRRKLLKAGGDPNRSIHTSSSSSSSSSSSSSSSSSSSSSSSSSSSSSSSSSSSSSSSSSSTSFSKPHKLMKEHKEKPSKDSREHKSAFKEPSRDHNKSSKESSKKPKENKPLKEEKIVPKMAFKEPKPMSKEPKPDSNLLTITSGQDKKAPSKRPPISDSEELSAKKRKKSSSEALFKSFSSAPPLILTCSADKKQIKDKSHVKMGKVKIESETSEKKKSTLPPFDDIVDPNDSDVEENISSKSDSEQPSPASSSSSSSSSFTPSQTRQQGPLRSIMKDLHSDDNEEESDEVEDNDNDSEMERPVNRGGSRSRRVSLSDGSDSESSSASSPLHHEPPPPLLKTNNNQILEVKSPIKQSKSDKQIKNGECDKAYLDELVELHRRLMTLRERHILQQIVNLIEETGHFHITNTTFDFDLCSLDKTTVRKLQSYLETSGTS
Beta apoptosis = beta cell apoptosis inhibition; protection from apoptosis, % (test concentration not listed); INS-1E cytokine-induced death, ATP luminescence, 48 h; percent of positive-control rescue, neutral wells zero; 300,000 compounds, 0.8% hits;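 active = all replicates at 75% or more, or half of them and the mean; inconclusive = half reach 75% but not the mean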;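 also: 0% = cytokine-treated negative control wells and 100% = positive control rescue; higher means more ATP so stronger rescue from cytokine killing; wells of about 40 µL received 100 nL stock; the first replicate is given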
RanGTP-Imp inh = inhibitors of RanGTP-importin-beta interaction, primary screen, biochemical, FRET, CFP-Ran, YFP-importin-beta, homogeneous; cell-free CFP-Ran/YFP-importin-beta FRET ratio; AID 2216; inhibition, % (test concentration not listed); 300,000 compounds, 1.1% hits;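 active = most replicates above 15%; inconclusive = exactly half above 15%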;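 also: 0% = DMSO wells and 100% = Ran loaded with GDP instead of GTP; wells of about 40 µL received 100 nL stock; the first replicate is given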
rRNA inh HTS OD600 = second read-out of rRNA inh HTS, no call of its own (marks repeat the call); OD600 change, %; measured here: OD600 growth;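 optical density of the mix in the first replicate; 0 = DMSO median and -100 = no signal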
rRNA inh HTS RFP = further read-out of rRNA inh HTS, marked with its call; RFP signal change, %; measured here: RFP humanized mutant strains;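 first replicate; 0 = DMSO median and -100 = no signal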
Starred values were filed as active, the others as inactive; ? = inconclusive; . = not tested or not shown. This is a subset, so the mix of outcomes need not match the whole.

SMILES	T cruzi inh	Bfl-1 A1 inh	rRNA inh HTS	rRNA inh HTS OD600	rRNA inh HTS RFP	Calb FLC	Vif TR-FRET	AF4-AF9 inh	Beta apoptosis	RanGTP-Imp inh
C[C@]12C(=O)N(c3ccc(Br)cc3)C(=O)N1[C@H]1c3ccccc3OC[C@@H]1[C@H]2c1ccccc1	.	-0.6	10	3	4.1	.	.	-10	-1	.
CC1CCN(S(=O)(=O)N2CCCC(C(=O)NCc3ccc(F)cc3)C2)CC1 (centres undefined)	-15	-2.4	-5	-8	-1.9	-40	.	0.4	1	1.9
Nc1ccc(CCn2ccnc2)cc1	-13	-1.3	18	16	0.0	-5	-3%	11	1	-5.6
COc1cccc(NC(=O)NC2CCCCCCC2)c1	-4	0.2	1	0	1.6	-8	.	-2.4	-4	2.3
CCCc1cc(=O)[nH]c(SCCOc2ccc(OCC)cc2)n1	5	-1.7	.	.	.	27	5%	.	-5	2.2
COc1cc(CC(=O)NCC(C)(C)N2CCOCC2)cc(OC)c1OC	2	0.4	9	6	0.3	-7	60%	2.1	-6	?
CC(C)NC(=S)N/N=C/C1=CCC2CC1C2(C)C (centres undefined)	50	0.7	.	.	.	-49	.	.	5	1.9
CC(=O)Nc1ccc(NC(=O)CSc2nnc(C)c(=O)n2N)cc1	-6	-0.1	12	4	-3.9	-13	-5%	?	0	5.1
CCOC(=O)Nc1sc(=S)n(C)c1C	-9	0.8	.	.	.	-7	10%	.	-7	-2.8
O=P(Cc1ccncc1)(c1ccccc1)c1ccccc1	-5	0.5	.	.	.	3	0%	.	-9	-2.1
CC/C(O)=C1\C(=O)CC(C)(C)CC1=NCCc1nc2ccccc2[nH]1	6	0.6	6	8	3.4	-3	-5%	0.7	0	0.0
O=C1OCCC1Sc1nc2ccccc2c(=O)n1Cc1ccccc1 (centres undefined)	-7	0.9	-21*	0.0*	1.6*	7	2%	2.7	-4	7.8
CC1(C)SC(=Nc2ccccc2)N(S(=O)(=O)c2ccccc2)C1=O	1	-1.0	25	15	-1.8	-3	0%	-66	-5	4.2
Cc1cc(C(=O)c2ccc3ccccc3c2)c(C)o1	-5	-1.3	-23*	-9.6*	-7.0*	-4	.	0.9	?	3.6
CC(NC(=O)c1cncc(Br)c1)c1ccc(S(N)(=O)=O)cc1 (centres undefined)	-17	1.7	.	.	.	1	-4%	.	-7	1.3
COc1ccc(CNC(=S)Nc2ccc(Br)cc2)cc1	-4	-0.5	-22	-20	-3.5	-4	-5%	-0.5	-9	-1.7
CCOC(=O)c1ccc(NC(=O)c2nc[nH]c2C(=O)N[C@@H](C)C(=O)OC(C)(C)C)cc1	-16	?	.	.	.	-4	1%	.	3	-3.3
O=C(Cc1ccc(Br)cc1)OCC(=O)c1ccc[nH]1	.	-1.2	-23*	-26*	-0.4*	.	1%	2.1	-4	.
CCC1CCCCN1C(=O)CSc1nnc(CNC(=O)c2cc(OC)c(OC)c(OC)c2)o1 (centres undefined)	1	2.3	.	.	.	-1	-1%	.	4	-1.0
CN(C)S(=O)(=O)c1ccc(Cl)c(C(=O)Nc2cccc([N+](=O)[O-])c2)c1	18	-0.7	3	-2	-1.9	-7	3%	3.0	37	-0.2
O=C(CO/N=C/c1ccc(OC(F)F)cc1)NCc1cccs1	0	1.6	.	.	.	-3	3%	.	-1	0.9
COc1cc(-c2nnc(SCc3cccnc3)n2C)cc(OC)c1O	-17	-0.9	13	7	-0.8	6	8%	-16	-4	6.9
C=CCn1c(C)nnc1SCC(=O)Nc1nc(C)c(C(=O)N(C)C)s1	-24	0.3	5	9	-1.5	2	.	-1.1	-4	3.5
Cc1cccc(NC(=O)c2sc3nc(-c4ccc(F)cc4)cn3c2C)n1	11	0.2	.	.	.	14	-26%	.	2	5.0
CC(C)CN(Cc1c(O)ccc2ccccc12)CC(C)C	-23	0.2	-22	-22	-0.6	35	.	1.5	-4	20*
SMILES	T cruzi inh	Bfl-1 A1 inh	rRNA inh HTS	rRNA inh HTS OD600	rRNA inh HTS RFP	Calb FLC	Vif TR-FRET	AF4-AF9 inh	Beta apoptosis	RanGTP-Imp inh
COC(=O)c1sc(NC(=O)CSc2nnc(C(C)C)n2C)nc1C	1	-2.9	.	.	.	6	-1%	.	1	2.6
COc1ccc(CCNC(=O)COc2ccc(C)nc2[N+](=O)[O-])cc1	-15	0.2	-14	-13	-1.1	-2	-1%	-1.7	-1	?
CCOC(=O)N1CCN(S(=O)(=O)c2ccc3c(c2)CCN3C(=O)C2CC2)CC1	10	0.3	.	.	.	-9	-5%	.	-4	2.9
Cc1ccc(CNC(=O)c2ccc(Cl)c(S(=O)(=O)N3CCCCC3)c2)cc1	.	-0.5	-7	-15	0.8	.	.	-15	-10	.
COc1cc([N+](=O)[O-])ccc1NC(=O)CSc1nc2ccccc2n1-c1ccccc1	18	1.0	7	-3	4.0	0	?	4.5	-2	-4.8
Cc1nn(-c2ccccc2)c(N)c1C1(O)C(=O)Nc2ccccc21 (centres undefined)	-3	-0.2	5	2	0.4	?	1%	-0.5	-1	7.1
CCn1c(Cc2c(C)[nH]c3ccccc23)nnc1SCC(=O)NCc1ccco1	.	1.0	.	.	.	4	9%	.	-2	.
CCOC(=O)/C(=C/c1ccc(F)cc1)NC(C)=O	-47	-0.1	.	.	.	5	-6%	.	-1	-0.8
CCCCCn1c(=S)[nH]c2ncccc2c1=O	-4	0.5	.	.	.	-1	-9%	.	1	7.1
COc1ccccc1-c1csc2ncnc(Sc3nnnn3C)c12	.	-2.2	-1	-4	-2.4	.	.	-2.2	-23	.
Cc1c(CC(=O)N2C[C@H]3C[C@@H](C2)c2cccc(=O)n2C3)c(=O)oc2cc3occ(C(C)(C)C)c3cc12	10	-0.7	.	.	.	11	.	7.2	1	?
CCC(=O)N(Cc1ccco1)c1nc(-c2ccc(OC)cc2)cs1	10	0.1	.	.	.	2	3%	.	8	-0.5
Cc1cc(C)cc(NC(=O)Nc2ccc3c(c2)CCC3)c1	13	0.1	2	13	-1.0	-13	.	0.9	6	-5.3
COc1cc(O)c2c(=O)cc(-c3ccccc3)oc2c1	3	-2.2	2	8	2.7	5	-3%	4.0	1	-1.4
O=C(CCc1ccccc1F)N1CCN(c2ccccc2)CC1	-11	1.1	-5	-5	-0.6	-19	.	-0.5	3	-1.9
CCOCC(=O)Nc1cc(C(=O)Nc2ccc(F)cc2)ccc1Cl	-3	-5.8	.	.	.	-10	-5%	.	4	5.3
Cc1cccc(C)c1NC(=O)CN1CCc2ccccc2C1	1	0.2	-6	-1	-0.1	-2	-6%	0.5	-4	1.0
COc1ccc(-c2cc(C(F)(F)F)n3nc(C(=O)O)cc3n2)cc1OC	-17	-1.0	.	.	.	15	12%	.	.	4.4
CN(C)C(=O)CSc1nc(-c2cccs2)c(-c2cccs2)[nH]1	1	0.4	0	0	-1.0	3	-4%	4.6	1	-4.4
C/C(=C\c1ccc(C)o1)C(=O)c1c(C)cc(C)[nH]c1=O	-24	1.8	11	5	-0.3	-2	.	-2.3	-4	0.0
COc1cc(C(=O)NCCCNc2nc3cc(C)cc(C)c3cc2C#N)cc(OC)c1OC	10	0.7	.	.	.	-10	3%	.	.	21*
CCN(Cc1ccccc1)C(=O)CN1C(=S)NC(C)(C)CC1C (centres undefined)	-7	-0.9	.	.	.	-4	.	4.2	-4	5.3
CC(C)C(=O)NC(=S)Nc1ccccn1	-7	-0.9	.	.	.	6	-2%	.	-1	?
O=C(CSCc1ccccc1Br)N/N=C/c1ccc2c(c1)OCO2	7	-0.7	.	.	.	-3	17%	.	2	-1.4
Cc1ccc(OC(C)C(=O)N(C)Cc2ccccc2)c([N+](=O)[O-])n1 (centres undefined)	-8	0.5	1	7	1.7	13	2%	0.5	0	-2.2
SMILES	T cruzi inh	Bfl-1 A1 inh	rRNA inh HTS	rRNA inh HTS OD600	rRNA inh HTS RFP	Calb FLC	Vif TR-FRET	AF4-AF9 inh	Beta apoptosis	RanGTP-Imp inh
COc1ccccc1N1CCN(C(=O)CSc2nc3ccccc3nc2N2CCC(C)CC2)CC1	38	-1.3	7	8	0.3	18	.	5.1	7	2.7
COc1ccc(CN2CCN(Cc3ccc(C(F)(F)F)cc3)CC2)c(OC)c1	49	-0.2	-7	-19	11	1	6%	5.4	-2	1.2
O=C(COC(=O)Cn1nnc2ccccc21)NC1CCCC1	-4	0.7	6	9	-1.9	2	.	-0.8	-9	-2.0
COC(=O)Cn1nnc(N2CCOCC2)n1	-12	-0.8	23	17	2.7	-7	-10%	1.6	-14	1.5
C(=N\Nc1ccc2nncn2n1)/c1ccccn1	-3	-0.2	-34*	-27*	-10*	-21	.	-2.2	58	11
O=C(COc1ccc(C(=S)N2CCOCC2)cc1Cl)Nc1ccccc1Cl	3	-0.7	8	-1	0.8	2	-17%	-2.3	-7	6.5
Cc1cc(/C=c2\sc3nc4ccccc4n3c2=O)c(C)n1-c1ccc(C(=O)O)cc1	-2	.	-12	-6	-4.0	13	?	-7.0	.	?
CN(CCc1nc2ccc(Cl)cc2[nH]1)Cc1nc(CC2CC2)no1	6	0.0	6	0	5.5	-10	.	-9.2	1	-4.4
CCOCCCNC(=O)C(NC(=O)Cc1c[nH]c2ccccc12)c1ccccc1 (centres undefined)	2	2.9	2	8	-1.7	-1	-3%	-0.3	-14	-0.7
CCN(C(=O)CSc1ncccc1C(=O)O)C1CCCCC1	9	0.1	13	0	-3.4	-4	-1%	-0.8	-8	-1.5
COc1cc(SC)ccc1C(=O)NNC(=O)c1cc(C)oc1C	-4	-12	3	0	-1.8	-1	2%	-0.2	59	1.7
S=C(NCC1COc2ccccc2O1)Nc1ccc(Br)cc1 (centres undefined)	4	0.6	-41	-74	-24	?	15%	4.0	-3	-5.0
Nc1nc(SCC(=O)N2CCOCC2)[nH]c(=O)c1-c1ccccc1	-2	-0.3	9	7	-0.1	35	-8%	-4.5	-4	1.7
Cc1nnc(NC(=O)Nc2ccc(Cl)c(Cl)c2)s1	28	-2.3	.	.	.	-1	22%	.	55	2.3
COc1cc(OC)c(S(=O)(=O)N2CCCCC2)cc1S(=O)(=O)N1CCCCC1	17	0.4	.	.	.	9	-3%	.	2	-1.1
CSc1cccc(NC(=O)NCc2cccc(CNC(=O)Nc3cccc(SC)c3)c2)c1	-4	.	0	-2	-3.8	-7	?	-0.2	.	0.9
Cc1cccc(C)c1NC(=S)N(Cc1cccs1)C1CCCC1	-4	-0.2	5	-1	-2.9	1	0%	0.1	1	-1.5
Cc1cnc(C(=O)OCC(=O)c2ccc(Cl)cc2)cn1	-3	0.5	15	3	-0.1	5	.	-0.6	-7	5.6
COc1ccc(NC(=O)N2c3ccccc3CC2C)cc1OC (centres undefined)	-2	-0.1	.	.	.	6	-3%	.	0	4.1
O=C(OCc1cnc(Cl)s1)c1ccc(Cl)cc1	-3	0.5	.	.	.	3	-4%	.	4	-0.3
